# Source: PubChem BioAssay
# Autofluor counter: counter-screen for toxin protease inhibitors: compound fluorescence | 360,000 compounds, 3.1% hits | compound autofluorescence counterscreen, microsphere flow cytometry; active compounds read high | fluorescence intensity (test concentration not listed);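 active means at least 3 SD above the mean of all compounds, about 16000 in these data; inconclusive means too few beads counted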;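 further: 100 nL of 1 mM stock went into each well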
# BJeLR viability: kills HRASV12-expressing BJeLR cells. BJeLR (HRASV12) viability, CellTiter-Glo ATP luminescence, 48 h; reference of the scale not given here. inhibition, % (no concentration beside the values). 300,000 compounds, 0.17% hits;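 active means replicate mean above 50%; inconclusive means above 50% but judged a plate artefact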;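 further: 50 nL library stock added to about 25 µL; numbers are from one replicate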
# Sa ugtP lethal: compounds lethal to S. aureus RN4220 ugtP deletion mutant; OD600 growth, 16 h; some inactives read as strong as hits; growth inhibition, % (concentration not given with the values); AID 1259309; 330,000 compounds, 0.54% hits;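 active means z-score under -3 and OD600 up to 0.15 on both plates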;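 further: plate controls were untreated wells for no effect and antibiotic for full effect; wells of about 80 µL received 100 nL stock; the first replicate is given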
# RN4220 kill: S. aureus RN4220 growth inhibition; OD600, 16 h; inhibition, % (concentration not given with the values); 330,000 compounds, 0.33% hits; AID 1259311;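 active means z-score of -3 or lower and OD600 up to 0.18 on both plates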;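 further: plate controls were untreated cells for no effect and reference antibiotic for full effect; stock transfer was 100 nL into about 80 µL; one replicate is shown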
# Mtb hypoxia rep: Mtb hypoxia fluorescent reporter inhibition. M. tuberculosis hypoxia-regulated fluorescent reporter, fluorescence. fluorescence inhibition, % (test concentration not listed). 300,000 compounds, 0.1% hits. AID 1159583;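 active means 35 to 45% if threefold the growth effect, above 45% if 1.5-fold the growth effect; inactive means the rest, general growth blockers included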;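 further: wells of about 50 µL received 100 nL stock; 0% = vehicle wells and 100% = reference inhibitor wells; whole bacteria with a GFP reporter of the hypoxia response; strong numbers were not always called active; many hits fall short of the cut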
# PrP 5UTR inh: inhibition of PrP 5' UTR reporter expression. cell-based PrP 5' UTR mRNA reporter, plate reader. inhibition, % (concentration not given with the values). 340,000 compounds, 0.35% hits. AID 488862;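 active means every replicate at 50% or more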;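 further: 0 = median of the neutral control wells; tested in H4 reporter cells; numbers are from one replicate; inactives centre near -14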
# Mtb hypoxia rep growth: second read-out of Mtb hypoxia rep, no call of its own (marks repeat the call); growth inhibition, %; measured here: M. tuberculosis growth (absorbance);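 0% = vehicle and 100% = reference antibiotic; read after six days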
# Active calls of the source: *; ? = inconclusive; . = not tested or not shown; & = joins results of further samples. An unsorted share of the library. About 4% of those tested had a hit in this group.
SMILES,Autofluor counter,BJeLR viability,Sa ugtP lethal,RN4220 kill,Mtb hypoxia rep,Mtb hypoxia rep growth,PrP 5UTR inh
CCCn1c(=NC(=O)CCS(=O)(=O)c2ccccc2)sc2cc(S(N)(=O)=O)ccc21,4340,-4,0,0.3,-8,0,-8
C(=NNc1nc(Nc2ccccc2)nc(Nc2ccccc2)n1)c1cccnc1,.,.,-18,-9.8,2,3,.
CCOC(=O)CNC(=O)Cn1cnc2c(nnn2-c2cccc(OC)c2)c1=O,3755,10,7,3.8,17,24,-31
CCN(CC(=O)Nc1ccccc1OC)CC(=O)Nc1ccccc1-c1ccccc1,4097,.,-5,8.6,2,-5,-27
O=C(Oc1ccc2ccccc2c1)c1cncc(Br)c1,11232,2,2,1.9,8,3,12
COc1ccc(CC(=O)Oc2ccc(Br)cc2F)cc1S(=O)(=O)N1CCOCC1,.,-7,-1,-1.0,-4,4,-2
O=c1c2ccccc2nc(SCc2cn3ccsc3n2)n1-c1ccc(F)cc1,2488,-2,-1,0.1,0,9,-16
Cc1ccc(NC(=O)CCN2C(=O)C3CCCCC3C2=O)cc1[N+](=O)[O-] (stereo not drawn),5809,-1,6,3.6,8,6,-18
O=C(c1cccs1)N1CCCc2ccccc21,11369,-10,-3,2.3,5,6,-22
CC1C(=O)N2CCCc3cc(S(=O)(=O)N(C)Cc4ccccc4)cc1c32 (stereo not drawn),4334,-3,10,9.6,-4,2,-19
Cc1c(C)c2ccc(OCC(=O)N3CCOCC3)c(C)c2oc1=O,3517,-7,4,-2.1,1,-2,-21
Cc1ccc(NC(=O)COc2ccccc2C(=O)NCCN(C)C)cc1,.,-11,-5,-4.8,3,-1,.
C=CCn1c(SCc2cccc(OC)c2)nnc1-c1ccncc1,3306,6,10,3.3,7,-10,-13
CC1CN(c2oc(Cc3cccc4ccccc34)nc2C#N)CC(C)O1 (stereo not drawn),2895,2,3,1.8,9,13,-16
COc1cccc(C2C(C(=O)c3cccs3)=C(O)C(=O)N2CCN2CCOCC2)c1 (stereo not drawn),3451,-4,-4,1.9,-6,8,-7
CN(C)c1ccc(C=Cc2cc[n+](C)c3ccccc23)cc1,.,.,93*,95*,21,13,.
CCC1(C)NC(=O)N(CC(=O)N2CCC(Cc3ccccc3)CC2)C1=O (stereo not drawn),5258,.,4,1.7,1,3,-14
CCN(CC(=O)Nc1ccccc1C(F)(F)F)C(=O)CN1C(=O)NC(C)(c2ccc3ccccc3c2)C1=O (stereo not drawn),3453,.,1,4.9,7,9,-15
CC=C(C)C(=O)NCCN1C2=NCC(C(C)C)N2CC1Cc1ccc(OC)cc1 (stereo not drawn),.,.,4,3.6,13,14,.
O=C(Cc1n[nH]c(=O)c2ccccc12)OCC(=O)N(Cc1ccccc1)Cc1ccccc1,4146,2,3,0.6,6,-3,-22
O=C(c1ccco1)N1CCCC(c2nc3c(nnn3Cc3ccccc3)c(=O)[nH]2)C1 (stereo not drawn),6070,-8,-2,-0.6,10,-2,-20
Cc1ccc(Oc2ccccc2NC(=O)C2=COCCO2)cc1,4690,-4,-7,-4.8,-4,0,-17
Cc1cc(C)c(C#N)c(SCC(=O)Nc2ccc(S(=O)(=O)Nc3onc(C)c3C)cc2)n1,3937,3,2,1.6,.,.,-9
CCCCC1CC1C(NC(=O)c1ccco1)c1ccccc1C(F)(F)F (stereo not drawn),.,.,-9,6.0,-5,-2,.
CCCC1CC(c2csc(N)n2)CCO1 (stereo not drawn),3273,3,0,4.7,12,2,-6

# Continued, starting with the last two of the part before.
SMILES,Autofluor counter,BJeLR viability,Sa ugtP lethal,RN4220 kill,Mtb hypoxia rep,Mtb hypoxia rep growth,PrP 5UTR inh
CCCCC1CC1C(NC(=O)c1ccco1)c1ccccc1C(F)(F)F (stereo not drawn),.,.,-9,6.0,-5,-2,.
CCCC1CC(c2csc(N)n2)CCO1 (stereo not drawn),3273,3,0,4.7,12,2,-6
O=C(c1ccc(Oc2ccc([N+](=O)[O-])cc2Cl)cc1)N1CCCC1,2240,-5,5,11,8,9,-11
CN(CC(=O)Nc1ccccc1Br)C(=O)c1ccncc1,4485,9,2,-1.0,0,1,0
CN(C)C(=O)c1cn(-c2ccccc2)nc1-c1cccs1,23620*,5,1,3.3,12,1,-12
NS(=O)(=O)c1ccc(N2N=C(c3ccccc3)CC2c2cccc(Cl)c2)cc1 (stereo not drawn),3794,.,-20,3.2,0,10,-7
Cn1c(/N=C/c2ccc3c(c2)OCO3)nc2ccccc21,7140,1,.,.,.,.,-26
CCOc1ccc(N=C2NC(=O)S/C2=C\c2ccc(OC)cc2)cc1,5743,0,-2,-1.4,8,-1,-23
O=C(CCCCCCN1C(=O)c2ccccc2C1=O)Nc1nccs1,4656,-2,11,5.9,.,.,-20
CCOc1ccc(NC(=O)CCN2CCN(S(=O)(=O)c3cc(Cl)ccc3OC)CC2)cc1,4340,7,4,-1.2,.,.,-25
CCN(Cc1ccccc1)S(=O)(=O)c1ccc(C(=O)N(CCCN(C)C)c2nc3c(F)cccc3s2)cc1,.,9,-9,-0.7,4,-9,-4
CCC(C)NCC(=O)Nc1ccc([N+](=O)[O-])cc1C(=O)Nc1ccccc1F (stereo not drawn),4712,1,4,-3.4,11,3,-16
COC(=O)c1c(NC(C)=O)sc(C(=O)Nc2ccccc2C)c1C,2544,7,6,0.7,8,5,-5
O=C(COC(=O)COc1ccccc1[N+](=O)[O-])Nc1ccc2c(c1)OCO2,4179,.,-3,-0.2,2,-4,-21
COCC(C)n1c(C)cc(C(=O)CSc2ccc(NC(C)=O)cc2)c1C (stereo not drawn),2573,2,-1,2.5,.,.,10
COc1ccccc1C(=O)COC(=O)CSCC(=O)Nc1cc(C)on1,.,-4,7,3.6,3,4,-19
COc1cc(CNC2CCCCCCC2)c(Br)cc1OCCO,3889,3,8,0.8,19,6,-13
O=C(Cc1ccc(Cl)cc1)NCc1nc(-c2ccccc2)no1,3502,-11,-8,18,10,11,3
CCOc1cc(NC(=S)NCC2CCCO2)c(OCC)cc1NC(=O)CC(C)C (stereo not drawn),4275,0,1,5.0,9,12,-9
CC12CCC(C(=O)Nc3nc4ccccc4s3)(OC1=O)C2(C)C (stereo not drawn),4932,3,7,3.4,4,5,-34
Cc1ccsc1C(=O)NN=C1CCCCCC1,?,1,8,2.7,8,4,-23
Cc1cccc(N=C2CCCC2C(=O)Nc2cccc(C)c2C)c1C (stereo not drawn),3783,.,5,2.0,6,7,-52
CC1(C)S/C(=N/N=Cc2ccco2)NC1=O,.,.,4,7.7,-3,-6,.
O=C(Nc1cc(C(F)(F)F)ccc1N1CCCCC1)c1cccc([N+](=O)[O-])c1,10651,-13,-15,-1.8,-2,-5,-15
O=C(c1cccs1)N1CCC(c2nc(-c3ccc(S(=O)(=O)N4CCOCC4)cc3)no2)CC1,9842,5,8,1.7,7,4,-14
CSCCC(=O)N1CCCC(CNC(=O)c2ccc(-c3ccccc3)cc2)C1 (stereo not drawn),2214,3,6,-5.6,-11,-7,-21
Cc1cccc(OCC(=O)Nc2ccccc2F)c1,4300,1,4,5.8,-6,-1,-73
# Next part
SMILES,Autofluor counter,BJeLR viability,Sa ugtP lethal,RN4220 kill,Mtb hypoxia rep,Mtb hypoxia rep growth,PrP 5UTR inh
O=C(O)c1ccc(C=NNc2ncc(C(F)(F)F)cc2Cl)cc1,.,.,22,9.1,0,11,.
CCOP1(=S)Oc2cc3c(cc2C(C(=O)OC)(C(F)(F)F)O1)OCO3 (stereo not drawn),8115,-7,7,7.6,10,0,-20
CC(C)(C)OC(=O)N1CCC(Cc2cc(-c3ccccc3)no2)(C(=O)O)CC1,3647,15,4,3.8,-1,5,-24
Cc1ccccc1NC(=O)/C(=C/c1ccco1)c1ccccc1,2493,-2,0,-0.4,.,.,-19
O=C(NCCc1ccccc1)C1CCC(=O)N(Cc2ccc(Cl)cc2)C1 (stereo not drawn),6212,-3,0,0.2,6,8,-14
O=C(NC(=O)N1CCSCC1)c1c(Cl)cccc1Cl,5362,11,2,3.0,0,7,-24
OCCC1CC(O)C(O)[C@@]2(CCc3ccccc3CO2)O1 (stereo partly drawn),.,.,-1&-1&1&2,3.9&2.5&4.6&7.4,3&9&4&10,-4&-1&3&13,.
Cc1ccccc1C(=O)Nc1cccc(C(=O)Nc2ccccc2C(=O)O)c1,4369,-2,0,5.9,2,7,-13
Cc1cc(C)nc(NC(=O)C(c2ccccc2)c2ccccc2)n1,10475,1,16,3.9,9,4,-20
Cc1cc(OCC(=O)N2CCC(O)(c3ccc(Cl)cc3)CC2)c2c(C)cc(=O)oc2c1,4392,8,1,1.7,-11,2,4
CCCOc1ccc(C(=O)Nc2ccc(N3CCN(C(=O)c4ccco4)CC3)cc2)cc1,5251,3,8,1.3,12,5,-8
O=C(Cn1nc(-c2ccccc2)ccc1=O)N1CCCCC1,3425,-1,-2,0.1,5,-1,-14
Cc1cccc(C(C(=O)NCc2ccc(F)cc2)N(C(=O)c2csnn2)C2CC2)c1 (stereo not drawn),2941,6,0,-0.5,3,-4,-16
COc1ccc(Cl)cc1NC(=O)COC(=O)C1CC(=O)N(Cc2ccccc2)C1 (stereo not drawn),.,.,7,-0.2,4,5,-9
CC(=NNS(=O)(=O)c1ccc(Cl)c([N+](=O)[O-])c1)c1cc2ccccc2o1,.,.,9,10,9,16,.
COc1cc(OC)cc(C(=O)Nc2ccc(S(=O)(=O)Nc3cc(C)on3)cc2)c1,2264,1,0,1.3,.,.,-24
Cc1ccc2nc(-c3ccc(N)cc3)sc2c1,3810,4,30,-12,6,8,23
Cc1cccc(C)c1OCC(O)CNS(=O)(=O)c1ccccc1C(=O)N1CCCCC1 (stereo not drawn),15302,7,13,6.0,2,-3,0
CCOc1ccccc1CN1CCN(Cc2cn(C)nc2-c2ccccc2)CC1CCO (stereo not drawn),3260,-3,.,.,.,.,-49
CCOc1cccc(NC(=O)c2cnccc2C(F)(F)F)c1,3675,4,0,0.0,4,12,-10
O=C(Cn1cnc2ccccc2c1=O)Nc1ccc(S(=O)(=O)N2CCCC2)cc1,4519,-8,2,2.5,5,3,-2
Cc1c(OC(C)C(=O)N[C@H](C(=O)O)c2ccccc2)ccc2c3c(c(=O)oc12)CCCC3 (stereo partly drawn),4048,4,10,2.3,.,.,7
CC(=O)Nc1ccc(NC(=O)CN(c2cccc([N+](=O)[O-])c2)S(C)(=O)=O)cc1,4305,69*,9,5.0,24,6,-23
O=C(Nc1ccccc1C(=O)Nc1ccccc1)c1cccs1,5580,-7,-2,4.5,-1,2,-16
COc1cc(S(=O)(=O)NCC2(N3CCCCC3)CCCCC2)ccc1NC(C)=O,.,.,0,-0.2,6,5,-13

# Sorted by number of heavy atoms (rising): 3 of the compounds above.
SMILES,Autofluor counter,BJeLR viability,Sa ugtP lethal,RN4220 kill,Mtb hypoxia rep,Mtb hypoxia rep growth,PrP 5UTR inh
O=C(O)c1ccc(C=NNc2ncc(C(F)(F)F)cc2Cl)cc1,.,.,22,9.1,0,11,.
Cc1cc(C)nc(NC(=O)C(c2ccccc2)c2ccccc2)n1,10475,1,16,3.9,9,4,-20
CCCOc1ccc(C(=O)Nc2ccc(N3CCN(C(=O)c4ccco4)CC3)cc2)cc1,5251,3,8,1.3,12,5,-8

# More records:
SMILES,Autofluor counter,BJeLR viability,Sa ugtP lethal,RN4220 kill,Mtb hypoxia rep,Mtb hypoxia rep growth,PrP 5UTR inh
Cc1ccc(N(CC(=O)NC2CCCC2)C(=O)Cn2nnc(-c3ccccc3F)n2)cc1,3132,0,4,-1.6,9,8,-13
C[C@H](CO)N1C[C@H](C)[C@@H](CN(C)Cc2ccc3c(c2)OCO3)Oc2c(NC(=O)C3CCCCC3)cccc2C1=O,3107,.,-15,-13,1,14,-8
COc1ccc(/C=C2/NC(=O)N(CC(=O)Nc3cccc(C)c3)C2=O)cc1O,4253,1,5,8.7,3,10,-16
CC(C)(C)c1csc(NC(=O)Cn2c(=O)oc3ccccc32)n1,4719,.,-3,-2.9,.,.,-19
CCCN1CCN(c2ncnc3c2nnn3Cc2ccccc2)CC1,2713,4,6,3.1,4,8,-21
CCOc1ccc(Cn2nnc(-c3ccc(S(C)(=O)=O)cc3)n2)cc1OCC,6519,.,10,2.9,3,1,-6
Cc1cc(NC(=O)C2C3C(=O)N(Cc4ccc(Cl)cc4)C(C(=O)NC(C)(C)C)C34C=CC2(C)O4)no1 (stereo not drawn),3084,-8,14,21,-10,-12,-14
